# Cruzain inh noDet: cruzain (T. cruzi) inhibition without detergent; P25779; actives 2.3% (n = 200,000); purified cruzain, Z-FR-AMC fluorescence, no detergent; Potency, µM, for inactives: max response, negative = inhibition, most hits filed as inhibitors;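 note: plate controls were enzyme without inhibitor for no effect and buffer without enzyme for full effect; nearly all actives have a fitted effect of over 40% in size; top concentration of the series not given in the record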
# Target sequence (P25779 123-467 limits assumed): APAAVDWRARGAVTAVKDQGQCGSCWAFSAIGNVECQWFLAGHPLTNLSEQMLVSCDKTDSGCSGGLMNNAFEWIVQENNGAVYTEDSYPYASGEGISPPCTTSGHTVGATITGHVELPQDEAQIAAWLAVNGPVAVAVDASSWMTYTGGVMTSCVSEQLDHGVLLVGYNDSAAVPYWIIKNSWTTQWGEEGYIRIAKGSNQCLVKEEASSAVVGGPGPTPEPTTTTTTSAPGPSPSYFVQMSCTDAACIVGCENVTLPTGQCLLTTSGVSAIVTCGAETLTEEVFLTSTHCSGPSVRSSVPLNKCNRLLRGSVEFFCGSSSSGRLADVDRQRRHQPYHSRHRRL
#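 Detergent-free condition (0.00005% Triton X-100) in acetate buffer pH 5.5 with DTT. 1.5 nM enzyme and compound were pre-mixed 15 min, then 2 uM Z-FR-AMC substrate added; reaction progress from fluorescence change between first and third reads (60 s).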
# Lassa entry inh: inhibitors of Lassa virus binding or cell entry; Lassa virus pseudotype entry inhibition, cell reporter; control for the full effect not named in the record; Potency, µM (highest dose often 37.9 µM), for the others: at the highest dose activity change, negative = inhibition, most hits filed as inhibitors; actives 1.2% (n = 300,000); active means well fitted inhibition curve with a large enough effect; inconclusive means small, poorly fitted or top-dose-only effect, or effect the other way; inactive means flat fitted curve, though single readings scatter; tested in HEK293 cells; note: % is set by controls: 0 for no effect and ±100 for the full control effect; nearly all actives have a fitted effect of over 50% in size; luciferase read-out
# NS1 inh: inhibitors of influenza NS1 protein function | Potency, µM (titrated, usually from 46.1 µM), inactives show top-dose activity, positive = more growth | actives 0.4% (n = 270,000) | S. cerevisiae slowed by influenza A NS1, growth recovery by OD600; active means well fitted rising curve with a large enough effect; inconclusive means small, poorly fitted or top-dose-only effect; inactive means no such curve, though single readings can be large or run the other way; note: nearly all actives have a fitted effect of over 50% in size
#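 OD600 was taken as the measure of yeast growth restored by compound in an NS1-expressing S. cerevisiae strain. Cells had been washed out of glucose medium and diluted 1:100 into galactose -URA medium, pH 6.0.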
# 2A StopGo: FMDV 2A StopGo reporter, luciferase signal | human cells with a luciferase reporter of 2A StopGo recoding; control for the full effect not named in the record | actives 1.2% (n = 410,000) | AID 1159524 | Potency, µM (doses to about 57.9 µM), without a hit: at the top dose signal change, negative = less light; active = well fitted falling curve with a large enough effect; inconclusive = small, poorly fitted or top-dose-only effect; inactive = no such curve, though single readings can be large or run the other way; tested in HEK293T cells; note: % is set by controls: 0 for no effect and ±100 for the full control effect; nearly all actives have a fitted effect of over 45% in size; luciferase light after 4 h
# SARS PLP yeast: inhibitors of SARS-CoV papain-like protease in yeast; actives 0.19% (n = 330,000); S. cerevisiae expressing SARS-CoV PLpro, growth rescue; control for the full effect not named in the record; Potency, µM (doses to about 32.9 µM), inactives show at the highest dose activity, positive = growth rescue; active means well fitted rising curve with a large enough effect; inconclusive means small, poorly fitted or top-dose-only effect; inactive means no such curve, though single readings can be large or run the other way; note: 0% is about no effect; nearly all actives have a fitted effect of over 55% in size; growth read by luminescence after 48 h
# Marburg entry inh: blocks Marburg virus binding to or entry into cells; Marburg virus pseudotyped entry inhibition, cell reporter; control for the full effect not named in the record; about a third of the inactives were read at about 46 µM; Potency, µM (top dose mostly 37.8 µM), inactives show top-dose activity change, negative = inhibition, usual class: inhibitors; actives 1.8% (n = 300,000); AID 540276; active = well fitted inhibition curve with a large enough effect; inconclusive = small, poorly fitted or top-dose-only effect, or effect the other way; inactive = flat fitted curve, though single readings scatter; tested in HEK293 cells; about a fifth of its hits are not listed in these tables; note: % is set by controls: 0 for no effect and ±100 for the full control effect; luciferase read-out
# RE007 growth inh: less growth of the S. pombe RE007 Vpr strain; Potency, µM (titrated, usually from 92.2 µM), for inactives: top-dose activity change, negative = less growth; S. pombe RE007 Vpr strain, BacTiter-Glo ATP luminescence, 24 h; control for the full effect not named in the record; actives 0.21% (n = 360,000); active = well fitted falling curve with a large enough effect; inconclusive = small, poorly fitted or top-dose-only effect; inactive = no such curve, though single readings can be large or run the other way;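 note: % is set by controls: 0 for no effect and ±100 for the full control effect; nearly all actives have a fitted effect of over 50% in size; the assay follows cell death caused by Vpr and the record does not say whether a fall means rescue or toxicity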
#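 Fission yeast RE007 carrying one integrated HIV-1 vpr copy, seeded at OD 0.01 in PMG+AL medium with 23 nL pinned compound. Grown 24 h at 30 degrees; viability read by BacTiter-Glo luminescence after 5 min.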
# Cruzain Triton: blocks cruzain activity in presence of Triton detergent; Potency, µM, inactives show max response, negative = inhibition, usual class: inhibitors; P25779; actives 0.43% (n = 200,000); purified cruzain, Z-FR-AMC fluorescence, 0.01% Triton;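 note: plate controls were neutral wells for no effect and buffer without enzyme for full effect; nearly all actives have a fitted effect of over 40% in size; top concentration of the series not given in the record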
#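 Sodium acetate buffer (100 mM, pH 5.5) containing 5 mM DTT and 0.01% Triton X-100 hosted 1.5 nM cruzain and test compound for 15 min at room temperature. Cleavage of 2 uM Z-FR-AMC was then tracked by fluorescence.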
# Starred values were filed as active, the others as inactive; u = inconclusive; x = not tested or not shown; & = joins results of further samples; [ ] = remark or other dose. Unless noted, calls come from the whole dose curve; as a rule, active = well fitted curve in the direction sought with a large enough effect; inconclusive = small, poorly fitted or top-dose-only effect, or another doubt; inactive = no such curve, though single readings can be large; an effect the other way counts as inactive or inconclusive. Potency is the fitted concentration of half-maximal effect. The order is random; any-hit rate near 4.7%.
SMILES,Cruzain inh noDet,Lassa entry inh,NS1 inh,2A StopGo,SARS PLP yeast,Marburg entry inh,RE007 growth inh,Cruzain Triton
CCOC(=O)Cn1c(=O)c2c(nc3n2CCS3)n(C)c1=O,-6%,-24%,-6%,3%,12%,u,13%,3.7%
COc1cc([N+](=O)[O-])ccc1NC(=O)N1CCC2(CC1)Nc1cc(F)ccc1-n1cccc12,25µM*,-2%[46.1 µM],x,-28%,x,x,x,-2.7%
Cc1ccccc1OCC(=O)NNC(=O)c1cc(S(=O)(=O)N(C)C)ccc1N1CCCC1,x,-11%,4%,-20%,-8%,-1%,-2%,x
CCOc1ccc(NC(=O)C2CC(=O)N(C)C(=Nc3ccc4c(c3)OCO4)S2)cc1 (configuration not stated),25%,23%,-7%,-21%,6%,26%,35%,-2.3%
CC(=O)c1cc2c(cc1N/C(=N/S(=O)(=O)c1ccc(C)cc1)c1ccccc1)OCO2,-2%&2%,u,-4%,44%&26%[activator],-24%,u,-2%,0.7%&-9.2%
Cc1ccc(-c2nc(SCC(N)=O)c(C#N)c3c2CCCC3)cc1,-4%,-5%,-6%,-6%,1%,-16%,0%[3.69 µM],-0.7%
COc1ccc(Cc2nnc(NC(=O)Nc3ccc(F)cc3)s2)cc1OC,x,x,1%,-22%,1%,x,2%,x
O=C(NCc1ccco1)c1cnc2sccn2c1=O,-6%,x,8%,-5%,-1%,x,5%,-6.4%
CC1CCCC(C)N1C(=O)COC(=O)c1ccc(Br)o1 (configuration not stated),x,-10%,x,21%,-1%,-12%,-8%,x
O=C(Nc1cccnc1)c1cccc(S(=O)(=O)Nc2ccccc2F)c1,x,-25%,x,32%[activator],5%,13%,-11%,x
Cc1ccc(SCc2cc(=O)n3[nH]c(C)nc3n2)cc1,7%,22%,-4%,6%,0%,-2%,2%,-4.2%
CCOc1ccc(NC(=O)CSc2cn(CC(=O)N3CCCCCC3)c3ccccc23)cc1,-3%,-19%[46.1 µM],x,-24%,x,x,x,-6.6%
COc1ccc(C)cc1NC(=O)CN(C)S(=O)(=O)c1cc(C)ccc1OC,-3%,-6%,0%,u,1%,-9%,28%,-7.3%
CC(=O)c1c(Nc2ccc3c(c2)OCCO3)oc(C)cc1=O,-10%,x,-62%,16%,3%,-2%,-1%,-1.6%
CCN(C(=S)NC(=O)C1CC1)c1ccccc1,x,x,2%,10%,0%,x,-4%,x
CN1C(=O)c2ccccc2Sc2ccc(NC(=O)NC3CC3)cc21,-10%,-21%,-7%,-22%,u,-2%,-13%,4.3%
COc1cc(C(=O)NCCC(c2ccccc2)c2ccccc2)cc(OC)c1OC,x,u,19%,-25%,-6%,u,6%,x
CC(C)S(=O)(=O)C/C(N)=N/OC(=O)c1cc(Cl)cc(Cl)c1,x,18%,-2%,-2%,0%,11%[46.1 µM],-1%,x
CC(C)[C@H]1COCCS(=O)(=O)N1Cc1ccccc1-c1cccc(Cl)c1,x,x,x,u,-67%,u,-5%,x
CC(C)N(Cc1ccccc1)C(=O)COC(=O)C1CCCCC1,x,2%,x,-6%,12%,u,29%,x
CC(=Nc1ccc2c(c1)nc(CO)n2C)C1=C(O)CC(C)(C)CC1=O,-1%,1%,-7%,59%[activator],-1%,0%,12%,-4.4%
CC[n+]1c(-c2ccccc2)csc1Nc1c(C)n(C)n(-c2ccccc2)c1=O,-1%,x,-5%,-15%,-15%,x,2%,-0.2%
Cc1ccc(N2CC(NS(=O)(=O)c3cccnc3)CC2=O)cc1 (configuration not stated),x,-11%[46.1 µM],x,-3%,1%,-15%,0%,x
Fc1ccc(-c2noc3ncnc(NCc4cccc(Cl)c4)c23)cc1,0%,-27%[46.1 µM],x,-18%,x,x,x,-0.9%
COc1cc2c(cc1OC)CN(c1nc(CN3CCOCC3)nc3sc4c(c13)CCCC4)CC2,11%,u,-3%,u,8%,u,-16%,-2.8%
Cc1ccc(N2CC(C(=O)Nc3cc(Cl)ccc3-n3cncn3)CC2=O)cc1 (configuration not stated),x,-13%,x,-3%,x,3%[46.1 µM],-23%,x
CCN(CC)C(=O)Cn1c(=O)n(-c2ccccc2)c(=O)c2c3c(sc21)CCC3,12%&-2%,0%[46.1 µM],0%,-2%&19%,6%,u,1%,-0.5%&1.2%
C[C@H](NC(=O)[C@H]1N2C(=O)c3ccccc3C2SC1(C)C)C(=O)N1CCCCC1 (some centres not stated),x,x,17%,-11%,8%,x,-3%,x
Cc1ccc(OCC(=O)N(Cc2ccco2)Cc2ccco2)cc1,0%,0%[46.1 µM],x,-16%,x,u,x,-4.5%
Cc1sc(NC(=O)CS(=O)(=O)c2ccccc2)c(C(N)=O)c1C,x,17%,x,61%[activator],13%,16%,18%,x
Cc1ccnc(NC(=O)CNC(=O)Cc2cccc3ccccc23)c1,x,u,x,10%,-2%,22%[46.1 µM],-17%,x
COc1ccc2oc(=O)c(C(=O)Nc3ccccc3-c3ccccc3)cc2c1,-15%,-2%,2%,-14%,1%,u,11%,-0.5%
COc1ccc(-c2cc(C(F)(F)F)nc(NCCc3ccccc3)n2)cc1,-6%,u,x,-10%,x,u,x,-8.4%
O=C(O)c1ccc(Nc2nc3c(s2)CCCC3)cc1,x,x,4%,10µM*,0%,x,-18%,x
O=C(O)c1cnn(-c2nc(-c3cccc(F)c3)cs2)c1C(F)(F)F,x,16%,-2%,54%[activator],0%,2%[46.1 µM],14%,x
COc1ccccc1N1CCN(C(=O)c2cc3c(-c4ccccc4F)nn(C)c3s2)CC1,u,u,x,u,x,-24%[46.1 µM],x,-7.9%
COc1ccc(N2CCN(C(=O)Cc3cccs3)CC2)cc1,3%,-14%,-57%,-2%,-3%,15%,4%,-2.3%
Cc1[nH]c(C)c(S(=O)(=O)N2CCC(C)CC2)c1C(=O)N1CCCC1,x,24%[46.1 µM],4%,36%[activator],11%,9%[46.1 µM],16%,x
Cc1ccc2c(c1Br)C(O)(CC(=O)c1ccc(F)cc1)C(=O)N2 (configuration not stated),-13%,-33%[46.1 µM],x,-7%,x,x,x,-5.6%
CC(=O)CNc1ccc(S(=O)(=O)N/N=C/c2ccccc2)cc1,x,-15%[46.1 µM],x,42%[activator],5%,5%[46.1 µM],-3%,x
CCOc1ccc(NC(=O)c2sc3nc4c(c(-c5ccc(OC)cc5)c3c2N)C(=O)CC(C)(C)C4)cc1,-18%,-20%[46.1 µM],x,1%,x,11%[46.1 µM],x,-1.6%
Cc1cccc(/C=N/n2c(C)cc(C)c(C#N)c2=O)c1,-12%,2%,1%,-25%,2%,5%,12%,-4.5%
Cc1c(C(=O)N2CCCC2)c(S(=O)(=O)Nc2ccccc2)c(C)n1C,x,u,2%,37%[activator],5%,u,4%,x
COC(=O)C1(CCSC)NC(c2ccc(O)c(OC)c2)C2C(=O)N(c3ccc(C)cc3)C(=O)C21 (configuration not stated),x,7%[46.1 µM],-3%,-4%,0%,-3%[46.1 µM],9%,x
CCOc1ccccc1NC(=O)Cn1c(=O)n(CC(=O)NCc2ccccc2Cl)c(=O)c2sccc21,1%,0%[46.1 µM],x,0%,x,u,x,-0.7%
Cc1ccc(S(=O)(=O)Nc2cc3c4c(c2)CCN4C(=O)CC3)cc1,x,-6%,x,26%,x,-1%,7%,x
COCC(=O)Nc1cc(C)cn(Cc2cccc(C(F)(F)F)c2)c1=O,x,x,-7%,-14%,-1%,x,3%,x
S=C1NCN(CCc2ccccc2)CN1,x,5%[46.1 µM],2%,-15%,-1%,3%[46.1 µM],-11%,x
COP(=O)(OC)C1(O)C(=O)Nc2ccc(Br)cc21 (configuration not stated),-4%,1%,16%,-15%,4%,-22%,1%,-3.8%
CCCCN(CCCC)C1=C(C(=O)c2ccccc2)N(C)S(=O)(=O)c2ccccc21,3%,-5%[46.1 µM],x,-8%,x,9%[46.1 µM],x,-9.9%
# (further entries)
SMILES,Cruzain inh noDet,Lassa entry inh,NS1 inh,2A StopGo,SARS PLP yeast,Marburg entry inh,RE007 growth inh,Cruzain Triton
O=C(CN1CCN(c2ccccn2)CC1)N1c2ccccc2Sc2ccc(C(F)(F)F)cc21,1%,-16%,-145%,u,-11%,u,-3%[3.69 µM],-2.4%
Cc1nc(NC(=O)c2c(-c3ccccc3)noc2C)sc1C(=O)N(C)C,x,-14%[46.1 µM],8%,5%,x,-8%[46.1 µM],13%,x
CC(=O)NCCn1c(SCC(=O)c2ccccc2)nc2ccccc2c1=O,11%,-4%,-23%,4%,-10%,24%,13%,2.1%
Cc1cc(C)cc(Oc2coc3c(CN4CCN(C)CC4)c(O)ccc3c2=O)c1,4%,9%[46.1 µM],x,-18%,x,x,x,0.2%
CCN(CC)C(=O)c1sc2c(c1C)c(=O)n(-c1ccc(Cl)c(Cl)c1)c(=O)n2Cc1ccccc1C#N,-4%,5%[46.1 µM],x,-4%,x,x,x,1.3%
CSc1ccccc1NC(=O)CN(C)CC(=O)Nc1ccccc1N1CCOCC1,x,x,x,-20%,1%,-22%[46.1 µM],-18%,x
O=[N+]([O-])c1ccc(N/N=C/c2cccc(O)c2O)cc1,x,-15%[46.1 µM],-55%,8%,-11%,u,5%,x
COc1ccc(S(=O)(=O)N2CCOC2CNC(=O)C(=O)NCCc2ccccc2)cc1 (configuration not stated),x,x,-1%,-22%,2%,x,-8%,x
Cc1cc(C(=O)NC(=S)Nc2ccccc2N2CCCC2)ccc1[N+](=O)[O-],-13%,-5%,10%,-27%,12%,5%,x,-2.9%
Cc1nc2c(C)cccn2c1/C(O)=C1\C(=O)C(=O)N(CCN(C)C)C1c1cccs1 (configuration not stated),x,2%,x,-20%,x,6%[46.1 µM],13%,x
COC(=O)c1ccccc1NC(=O)COc1ccccc1[N+](=O)[O-],x,-1%,x,-11%,-4%,-30%[46.1 µM],10%,x
COc1ccccc1N(Cc1ccccc1)S(=O)(=O)c1cccc(C(=O)Nc2ncccc2C)c1,x,-27%,x,13%,-1%,u,8%,x
O=C1CC(c2cccc(Cl)c2)C(n2cncn2)C(=O)C1C1NCCc2ccccc21 (configuration not stated),-5%,9%,13%,8%,-6%,0%[46.1 µM],16%,-0.8%
CN(Cc1cccs1)C(=O)CCCc1c[nH]c2ccccc12,x,-10%[46.1 µM],-19%,40%[activator],-5%,u,4%,x
CCOc1ccccc1N(C)C(=O)c1sc2nc3n(c(=O)c2c1C)CCCC3,-1%,-4%[46.1 µM],x,11%,x,x,x,-6.4%

# Screening data as filed in PubChem BioAssay.
